Source: PubChem (several laboratories)
UCH37 DUB inh – inhibitors of human deubiquitinating enzyme UCH37. Q9Y5K5. purified proteasome/UCH37, Ub-AMC cleavage fluorescence. 0.33% of 330,000 active. inhibition, % (no concentration beside the values). AID 588478;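 active = mean of two replicates above 20%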;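 also: 0% = compound-free wells with enzyme and 100% = wells lacking proteasome; stock transfer was 100 nL into about 20 µL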
Target sequence (Q9Y5K5 whole entry, looked up): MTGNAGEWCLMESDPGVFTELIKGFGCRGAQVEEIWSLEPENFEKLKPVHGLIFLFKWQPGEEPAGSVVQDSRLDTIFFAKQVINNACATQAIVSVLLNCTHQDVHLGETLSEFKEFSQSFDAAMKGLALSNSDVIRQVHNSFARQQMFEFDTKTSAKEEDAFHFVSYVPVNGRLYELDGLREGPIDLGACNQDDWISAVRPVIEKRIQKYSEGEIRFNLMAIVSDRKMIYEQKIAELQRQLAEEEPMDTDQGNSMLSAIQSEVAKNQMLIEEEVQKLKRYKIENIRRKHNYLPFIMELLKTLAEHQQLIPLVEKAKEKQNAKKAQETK
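Signal – fluorescence, ex 355 nm, em 460 nm · System – Proteasome-bound UCH37 · Input – 0.15 nM proteasome as dispensed · Timing – 30 min preincubation with enzyme, 25 min cleavage at room temperature · Read-out basis – percent inhibition of cleavage signal versus uninhibited and no-proteasome wells · Medium – Tris-HCl pH 7.4 with ATP-MgCl2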
Ecoli growth – blocks Escherichia coli growth. OD600, 23 h; hits give low values. OD600 absorbance (no concentration beside the values). 0.21% of 330,000 active. AID 1053175;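 active = OD600 absorbance below the run mean of sample wells minus 3.6 SD, in any replicate, cut at about 0.56 in these data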;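 also: stock transfer was 300 nL into about 60 µL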
Bfl-1 A1 inh – inhibitors of the anti-apoptotic protein A1, read as caspase activation; MEF A1-2A-BIM cells, Caspase-Glo 3/7 luminescence, 3 h; percent of clofoctol response, vehicle zero; caspase activation, % (concentration not given with the values); 0.066% of 330,000 active;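 active = over half of replicate activation scores above 10%, or exactly half above 10 with the replicate mean above 10; inconclusive = replicate mean below 10 yet half the replicates above 10; inactive = over half of replicates below 10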;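 also: wells of about 30 µL received 50 nL stock; many hits fall short of the cut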
LANA-H2B inh – blocks KSHV LANA binding to histone H2A/H2B; Q9QR71; cell-free LANA-H2A/H2B peptide, fluorescence polarization; inhibition, % (test concentration not listed); 0.6% of 320,000 active; AID 2629; in the data active = inhibition mostly above about 10%, no sharp cut-off; inactive = mostly below about 6.7%;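 also: stock transfer was 7.5 nL into about 10 µL; 0% = median of vehicle wells and 100% = median of positive control wells; one replicate is shown; the record names a cut of 25% in any replicate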
B2AR ag – agonists of human beta-2 adrenergic receptor inducing internalization | response, % (concentration not given with the values) | Am2.2-beta2AR cells, FAP receptor internalization, flow cytometry; reference of the scale not given here | 0.43% of 340,000 active | P07550;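 active = response above a set limit, near 3 SD of response in nonfluorescent compounds, cut at about 42% in these data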;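 also: stock transfer was 100 nL into about 11 µL; a reference agonist was the positive control; negative values mostly stem from fluorescent compounds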
HNF4A DNA FP – change in binding of human HNF4 alpha to DNA. P41235. HNF4a-FITC DNA binding, fluorescence polarization, 1 h. activity change, % at 10 µM. 0.3% of 360,000 active. AID 1224865; in the data active = activity change above about 30%, passing the limit was not always enough;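 also: controls were the assay level and a saturating level of protein; the project sought stronger binding though the title names inhibitors; some compounds called inactive have numbers as strong as hits; positive values seem to mean higher polarization but the record does not say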
Target sequence (P41235 whole entry, looked up): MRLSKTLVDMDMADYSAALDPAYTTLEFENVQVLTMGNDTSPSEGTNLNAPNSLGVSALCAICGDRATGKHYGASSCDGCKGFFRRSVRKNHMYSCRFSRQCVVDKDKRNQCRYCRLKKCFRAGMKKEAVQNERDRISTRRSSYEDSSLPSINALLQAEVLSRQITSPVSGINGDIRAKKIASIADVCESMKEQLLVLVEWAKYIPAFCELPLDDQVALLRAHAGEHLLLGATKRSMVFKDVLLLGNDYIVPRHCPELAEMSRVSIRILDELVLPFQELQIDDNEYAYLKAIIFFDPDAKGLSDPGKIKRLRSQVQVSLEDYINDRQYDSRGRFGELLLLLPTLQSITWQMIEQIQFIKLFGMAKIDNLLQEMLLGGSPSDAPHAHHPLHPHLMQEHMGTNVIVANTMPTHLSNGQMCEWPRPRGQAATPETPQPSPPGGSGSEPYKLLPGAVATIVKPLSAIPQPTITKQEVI
Vif A3G – HIV-1 Vif–A3G interaction blockers – biochemical, TR-FRET, GST-Vif 1-94, biotin-A3G peptide, dose response retest, primary screen (AID 1117319); TR-FRET GST-Vif / biotin-A3G peptide binding; higher % means a stronger effect; test concentration not given here; strong numbers were not always called active; 0.57% of 260,000 active; one-dose inhibition, %; IC50 in µM for titrated hits;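 active = above the screen mean plus three standard deviations and confirmed in dose response; inconclusive = results disagree or hit not tested in dose response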;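 also: Vif residues 1-94 fused to GST binding biotinylated APOBEC3G peptide 110-148; 0% = full assay without inhibitor and 100% = GST in place of GST-Vif; retest series ran down from 100 µM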
The depositor's hits bear a star; ? = inconclusive; · = no result given.

| Structure | LANA-H2B inh | Bfl-1 A1 inh | B2AR ag | UCH37 DUB inh | Vif A3G | HNF4A DNA FP | Ecoli growth |
| --- | --- | --- | --- | --- | --- | --- | --- |
| COc1ccc(CC(=O)OC(C)C(=O)Nc2ccc(S(N)(=O)=O)cc2)cc1 (stereo not drawn) | 2.4 | -0.1 | -5 | 1.3 | 0% | -0.5 | 0.68 |
| Cc1cccc(NC(=S)N=Nc2c(O)n(C)c3ccc(S(=O)(=O)N4CCOCC4)cc23)c1 | 1.7 | -0.4 | -1 | 9.6 | · | -4.7 | 0.69 |
| CC(C)n1c(CN2CCN(C(=O)c3ccco3)CC2)nc2c1c(=O)n(C)c(=O)n2C | -2.9 | 0.4 | -4 | 4.8 | · | -0.9 | 0.72 |
| COCCn1c(=O)[nH]c2cc(C(=O)OC)ccc2c1=O | 2.8 | 0.1 | 1 | -66 | -4% | 3.1 | 0.72 |
| COc1cc(OC)cc(C(=O)Nc2ccc3c(c2)OCCO3)c1 | 0.3 | -7.6 | 1 | 0.8 | · | 4.0 | 0.68 |
| CCOc1ccc(CNS(=O)(=O)c2c(C(=O)N3CCCC3)c(C)n(C)c2C)cc1OC | -1.0 | 0.6 | -9 | 0.3 | 1% | 0.4 | 0.66 |
| COC(=O)c1ccccc1NC(=S)NC(=O)C1CCCCC1 | 1.9 | 0.6 | 13 | 2.1 | -5% | 1.1 | 0.67 |
| O=C(O)Cc1ccc(NC(=O)c2ccc3c(c2)C(=O)N(CC2CCCO2)C3=O)cc1 (stereo not drawn) | -2.0 | -0.7 | -7 | -0.4 | -2% | -0.4 | 0.69 |
| CCCCSc1nnc(CNC(=O)C23CC4CC(CC(C4)C2)C3)n1Cc1ccccc1 | 1.0 | 0.2 | -7 | -0.3 | · | 21 | 0.69 |
| O=c1oc2cc(Br)ccc2n1Cc1ccccc1 | 3.0 | -0.9 | -10 | 3.0 | 9% | 0.8 | 0.64 |
| O=C(CSc1nnc(CNC(=O)c2ccccc2)o1)Nc1ccc2c(c1)OCO2 | -67 | 0.5 | -9 | -0.9 | ? | 2.9 | 0.68 |
| O=C(Nc1ccc(C(=O)N2CCN(c3ccc(Cl)cc3)CC2)cc1)C1=CSCCO1 | -1.8 | 0.8 | 8 | 2.6 | · | 2.5 | 0.68 |
| CC1(C)CC(=O)C([N+](=O)[O-])=C(NCCCC(=O)O)C1 | 1.0 | 0.8 | 6 | 5.1 | 1% | -1.3 | 0.71 |
| O=C(NCc1ccccc1)c1cc(-c2ccco2)on1 | -3.9 | 0.6 | 3 | 4.0 | ? | -3.1 | 0.75 |
| CC(C)Cc1nc2oc3c(NCCCN4CCOCC4)ncnc3c2c2c1CCC2 | -4.6 | 1.0 | 8 | -6.2 | -2% | 8.3 | 0.71 |
| O=C(CSc1nc2ncc(Cl)cc2[nH]1)c1ccc2c(c1)OCO2 | -1.7 | 0.6 | -3 | 6.9 | -21% | 2.6 | 0.67 |
| CC(C)Cn1c(NCCO)nc2ccccc21 | 5.0 | 0.6 | 2 | -0.3 | 1% | -5.6 | 0.65 |
| CCOC(=O)N1CCN(CCC(=O)c2ccc(Cl)cc2)CC1 | 5.6 | 0.4 | 2 | 2.9 | 32% | 3.0 | 0.65 |
| C#CCOCCOCCOCCNc1nc(N2CCN(C(=O)C([C@@H](C)CC)n3cc(C(N)Cc4ccc(O)cc4)nn3)CC2)nc(N2CCN(C(=O)[C@H](CCC(=O)O)n3cc(C(N)[C@H](C)CC)nn3)CC2)n1 (stereo partly drawn) | 0.7 | 1.0 | -1 | -0.6 | 20% | 1.3 | · |
| CCc1ccc(NC(=O)Cn2nc(C(F)(F)F)c3c2CCC3)cc1 | -4.0 | -0.5 | 9 | 0.3 | -6% | 0.3 | 0.68 |
| CNC(=O)c1ccc(Nc2nnc(C)c3ccccc23)cc1 | 10 | -0.8 | -7 | -1.5 | 12% | 1.9 | 0.7 |
| O=S(=O)(NCC(c1ccco1)N1CCc2ccccc21)c1ccccc1 (stereo not drawn) | -5.2 | 1.0 | -4 | 0.8 | 6% | 0.4 | 0.71 |
| CC1CCCC(C)N1C(=O)COC(=O)c1ccc(F)c(S(=O)(=O)N2CCOCC2)c1 (stereo not drawn) | 3.2 | -0.5 | 4 | 0.9 | · | 8.8 | 0.7 |
| CC(=O)c1cccc(NC(=O)CCNC(=O)c2cccc(C)c2)c1 | 6.1 | -1.0 | -1 | 0.3 | · | 2.4 | 0.65 |
| CN(C)c1nc(NCc2ccccc2)nc(N/N=C/c2ccc(Br)cc2)n1 | 3.6 | 0.1 | -2 | · | 2% | 0.3 | · |

Reprinted from the part before: 3 compounds, then new ones.
| Structure | LANA-H2B inh | Bfl-1 A1 inh | B2AR ag | UCH37 DUB inh | Vif A3G | HNF4A DNA FP | Ecoli growth |
| --- | --- | --- | --- | --- | --- | --- | --- |
| CC1CCCC(C)N1C(=O)COC(=O)c1ccc(F)c(S(=O)(=O)N2CCOCC2)c1 (stereo not drawn) | 3.2 | -0.5 | 4 | 0.9 | · | 8.8 | 0.7 |
| CC(=O)c1cccc(NC(=O)CCNC(=O)c2cccc(C)c2)c1 | 6.1 | -1.0 | -1 | 0.3 | · | 2.4 | 0.65 |
| CN(C)c1nc(NCc2ccccc2)nc(N/N=C/c2ccc(Br)cc2)n1 | 3.6 | 0.1 | -2 | · | 2% | 0.3 | · |
| Oc1ccc(/C=N/Nc2cc(N3CCCC3)nc(N3CCCC3)n2)cc1O | 3.0 | 1.3 | 14 | · | ? | 1.6 | · |
| O=C(c1ccc(N2CCCC2=O)cc1)N1CCN(c2cccc(C(F)(F)F)c2)CC1 | · | · | -11 | 1.4 | -2% | -1.5 | 0.69 |
| Cc1cccc(OCC(=O)O/N=C(\N)c2ccc(Cl)cc2)c1 | -6.9 | -0.7 | 4 | -0.1 | 7% | 3.6 | 0.65 |
| Cc1ccccc1OCC(=O)Nc1sc(C(=O)Nc2cccc(C)c2C)c(C)c1C#N | 2.4 | 1.4 | 3 | 1.4 | 5% | -0.6 | 0.68 |
| COc1ccc(CC2(CO)CCN(Cc3cccc(OC)c3OC)CC2)cc1 | 1.2 | 0.5 | 1 | 3.0 | 5% | 2.0 | 0.7 |
| CCc1cc(=O)oc2cc(OCC(=O)N3CCC[C@H]3C(=O)O)ccc12 | 3.7 | -0.2 | 3 | -33 | · | 2.4 | 0.79 |
| CCCNC(=O)C12CCC(C)(C(=O)C1Br)C2(C)C (stereo not drawn) | 0.8 | 1.5 | 0 | 4.0 | · | 4.5 | 0.69 |
| C[C@H](CO)N1C[C@H](C)[C@@H](CN(C)S(=O)(=O)c2ccccc2)Oc2ccc(NC(=O)Nc3ccc(C(F)(F)F)cc3)cc2C1=O | · | -0.7 | -3 | 5.6 | 3% | -2.6 | 0.7 |
| O=C(CSc1nnc(SCc2ccccc2)s1)N/N=C/C=C\c1ccco1 | 0.9 | -0.8 | 0 | · | ? | -31 | · |
| CC(C)Nc1nnc(SC(C)C(=O)NCc2ccc3c(c2)OCO3)s1 (stereo not drawn) | -3.1 | 1.9 | -3 | 0.2 | · | -2.2 | 0.64 |
| COc1ccc(-n2ncc3c2CC(C)(C)CC3NC(=O)CCc2c(C)noc2C)cc1 (stereo not drawn) | 1.1 | -1.1 | 11 | 2.6 | · | 0.2 | 0.69 |
| O=C(/C=C/c1ccccc1Cl)OCC(=O)N1CCCC1 | -6.9 | -1.0 | -7 | 1.3 | 0% | -1.0 | 0.7 |
| CCn1cc(C(=O)OCC(=O)Nc2ccc(S(=O)(=O)N3CCCC3)cc2)c(=O)c2ccc(C)nc21 | 5.1 | -0.3 | 5 | 2.8 | 0% | 3.3 | 0.65 |
| COc1cc(/C=N/NC(=O)c2ccc(N(C)S(=O)(=O)c3ccccc3)cc2)cc(OC)c1OC | -1.4 | 0.5 | 12 | · | 1% | 2.2 | · |
| O=C(NCc1cccnc1)c1nnc(Cc2ccc(F)cc2)o1 | -0.9 | 1.1 | -9 | 3.8 | -3% | 1.3 | 0.73 |
| CCCCCCOc1ccc(NC(=O)CC2C(=O)N(CC)C(=S)N2Cc2ccco2)cc1 (stereo not drawn) | -3.2 | 0.0 | -7 | 3.8 | · | 0.3 | 0.68 |
| COCCNC(=O)CSc1ccc(-c2nc3ccccc3[nH]2)cn1 | 2.1 | -2.5 | -8 | -42 | · | -5.4 | 0.69 |
| O=C(/C=C/c1cccc([N+](=O)[O-])c1)OCC(=O)N1CCN(C(=O)c2ccco2)CC1 | -2.1 | -1.0 | 17 | -0.9 | 17% | -1.0 | 0.68 |
| Cc1onc(-c2ccccc2Cl)c1C(=O)Nc1nnc(C(C)C)s1 | 0.2 | 1.2 | -4 | 2.1 | 2% | 2.0 | 0.72 |
| CCN(CC(=O)Nc1ccc2c(c1)OCCO2)c1nc(-c2cccnc2)nc2ccccc12 | 1.2 | 0.0 | 8 | -0.2 | -6% | 1.6 | 0.68 |
| CCN(CC)C(=O)c1sc(NC(=O)c2c(OC)cccc2OC)c(C#N)c1C | -20 | -0.8 | -5 | 29* | 3% | 2.7 | 0.73 |
| CCOc1ccc(-c2c(C(=O)N/N=C/c3ccc(Cl)cc3)nnn2-c2nonc2N)cc1 | 1.5 | -0.5 | -4 | · | · | -0.7 | · |
| CCn1ncc(CN2CCN(Cc3cccc(OC)c3)C(CCO)C2)c1C (stereo not drawn) | -2.2 | -0.2 | -3 | 2.4 | ? | -0.1 | 0.74 |
| N#C/C(=C\c1cccc([N+](=O)[O-])c1)c1nnc2n1CCCCC2 | -3.8 | 0.6 | -11 | 1.6 | -9% | 2.2 | 0.64 |
| NC(=O)c1sc2nc(-c3ccco3)ccc2c1N | -2.9 | -2.0 | -2 | -53 | 26% | -4.3 | 0.74 |
| CCCCC1(C)OC(=O)C(=Cc2c[nH]c3ccccc23)C(=O)O1 (stereo not drawn) | -5.9 | -0.9 | -3 | 2.1 | 0% | 1.2 | 0.67 |
| Cc1ccc(-n2nc3c(c2NC(=O)c2ccc4c(c2)OCO4)CS(=O)C3)c(C)c1 (stereo not drawn) | 13 | 0.3 | 1 | -0.5 | 6% | 1.6 | 0.69 |
| O=C(CSc1nc(=O)n2ccccc2n1)NCc1ccccc1 | -3.4 | 1.0 | -4 | -0.5 | 2% | -6.8 | 0.63 |
| CCOCCSc1nnc2nc(C)cc(C)n12 | 2.8 | 0.6 | -6 | 2.1 | ? | -3.0 | 0.78 |
| O=C(CSC1=NS(=O)(=O)c2cc(Cl)ccc2N1)Nc1ccccc1C(F)(F)F | · | 0.1 | 1 | 4.0 | -12% | 2.4 | 0.66 |
| O=C(CCS(=O)(=O)c1ccccc1)Nc1nc2c(s1)CCCC2 | 0.8 | 0.9 | -2 | 2.1 | -4% | -0.3 | 0.73 |
| COc1ccc(S(=O)(=O)NCCSC(C)(C)C)cc1 | 2.2 | -0.9 | -1 | 2.1 | -3% | -3.3 | 0.7 |
| COc1ccccc1N(C)S(=O)(=O)c1ccc(C(=O)OC(C)C(=O)NCc2ccc3c(c2)OCO3)cc1 (stereo not drawn) | -5.9 | 0.8 | -1 | -2.4 | · | -0.2 | 0.68 |
| CCOC(=O)C1CCCN(C(=O)Cc2ccc(Cl)cc2)C1 (stereo not drawn) | 3.7 | -0.1 | -2 | 3.3 | ? | -2.5 | 0.77 |
| C=CCOC(=O)C1=C[C@@H](c2cn(C(C)=O)c3ccccc23)C[C@@H](OCc2ccc(CO)cc2)O1 | -9.0 | -0.1 | 8 | 2.1 | · | 1.6 | · |
